Screening data deposited in PubChem BioAssay by National Center for Advancing Translational Sciences (NCATS).
TDP1 inh – TDP1 (human) enzyme inhibition. AID 485290. Potency, µM (doses to about 130 µM), inactives show at the top dose activity change, negative = inhibition, actives largely listed as inhibitors. hit rate 0.28% among 350,000. recombinant TDP1, AlphaScreen DNA substrate cleavage; further: nearly all actives have a fitted effect of over 40% in size
Target sequence (Q9NUW8 whole entry, looked up): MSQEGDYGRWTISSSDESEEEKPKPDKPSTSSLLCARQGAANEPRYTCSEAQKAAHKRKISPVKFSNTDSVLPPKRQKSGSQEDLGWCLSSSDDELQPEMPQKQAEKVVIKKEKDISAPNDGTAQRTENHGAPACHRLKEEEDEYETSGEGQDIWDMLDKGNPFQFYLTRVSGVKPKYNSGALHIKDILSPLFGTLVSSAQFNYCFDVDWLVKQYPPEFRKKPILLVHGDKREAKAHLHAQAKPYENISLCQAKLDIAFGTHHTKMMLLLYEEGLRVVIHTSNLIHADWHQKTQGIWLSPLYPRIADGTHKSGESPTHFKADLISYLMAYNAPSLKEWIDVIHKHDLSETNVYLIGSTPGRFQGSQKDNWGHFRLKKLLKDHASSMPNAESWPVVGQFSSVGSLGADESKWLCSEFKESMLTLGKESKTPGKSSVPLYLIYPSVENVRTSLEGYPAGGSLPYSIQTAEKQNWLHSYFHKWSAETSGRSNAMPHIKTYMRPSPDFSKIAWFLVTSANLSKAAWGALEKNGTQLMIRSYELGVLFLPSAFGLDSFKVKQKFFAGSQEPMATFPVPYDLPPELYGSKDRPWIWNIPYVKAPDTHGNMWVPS
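Tdp1 1 nM final; 15 min RT w/ cpd; substrate 15 nM, 5 min; beads 10 ug/ml, 10 min; AlphaScreen read. Neg ctrl: no enzyme.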
N370S GC mod – inhibits or activates N370S mutant glucocerebrosidase; Potency, µM (series often up to 59.4 µM), for the others: at the top dose activity change, negative = inhibition, most hits filed as inhibitors; AID 2101; N370S GC spleen homogenate, 4MU-glucoside fluorescence; hit rate 0.092% among 330,000; P04062;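 further: 0% = full enzyme activity and -100% = no enzyme basal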
The depositor's hits bear a star; ? = inconclusive; . = not tested or not shown; & = joins results of further samples; [ ] = another dose, or the depositor's remark. The call rests on the fitted dose curve; in most records, active means well fitted curve in the direction sought with a large enough effect; inconclusive means small, poorly fitted or top-dose-only effect, or another doubt; inactive means no such curve, though single readings can be large; an effect the other way counts as inactive or inconclusive. Unless noted, on the % scale 0 is the no-effect control and ±100 the full control effect; potency means the concentration at half of the fitted maximal effect.

SMILES	TDP1 inh	N370S GC mod
Fc1ccc(Nc2ccc(-c3ccc(F)cc3)nn2)cc1	0%	2%
CCOC(=O)C#CC(CCc1ccccc1)OS(N)(=O)=O (stereo unspecified)	.	-14%
Cc1ccsc1C(=O)OCC(=O)N(Cc1ccccc1)C(C)C	1%	.
COc1ccc(N(CC(O)CN2CCOCC2)S(=O)(=O)c2ccccc2)cc1 (stereo unspecified)	.	-15%
CN(C(=O)c1ccccc1)C1c2c(ccc3ccccc23)OCC1CO (stereo unspecified)	.	-13%
CCOc1ccc(NS(=O)(=O)c2ccc3[nH]cc(C(=O)NCC4CCCO4)c(=O)c3c2)cc1 (stereo unspecified)	-9%&-12%	6%
CCSc1nnc(NC(=O)c2cc(C)nc3ccccc23)s1	5%	7%
CCc1ccc(C(=O)COC(=O)c2ccc(Cl)nc2)cc1	-12%	13%
COc1nc(Nc2ccc(C(C)=O)cc2)nc(OC)n1	5%	2%
C=CCn1c(SCC(=O)NC(=O)c2cccc([N+](=O)[O-])c2)nnc1-c1ccccc1F	-1%	10%
Cc1cccc(S(=O)(=O)c2cn(Cc3ccccc3)c3cc(N4CCOCC4)c(F)cc3c2=O)c1	2%	.
COc1ccc(CNC(=S)Nc2ccccc2F)cc1	3%	-10%
COc1cc(OC)cc(-c2nc(-c3ccc(Br)cc3)no2)c1	-5%	5%[2.35 µM]
Cc1ccc(C2=[N+]([O-])C(C)(C)CC2)cc1	0%	-8%
CN1Cc2c(N3CCOCC3)nc3sc(C#N)c(N)c3c2CC1(C)C	6%	-3%
CCOC(=O)/C(C#N)=C/c1cc2ccccc2nc1Cl	7%	1%
COc1cc(NS(=O)(=O)c2ccc(NC(C)=O)cc2)nc(OC)n1	-2%	1%
COc1ccc(C(=O)c2c(C)oc3ccc(O)cc23)cc1	.	2%
CCCCCC[C@@H]([C@@H](C)O)n1cnc2c(N)ncnc21	9%[56.1 µM]	0%&-14%&13%&5%
N#Cc1c(N)nc(SCc2ccccc2)c(C#N)c1-c1ccco1	0%	-6%
Cc1ccnc(NC(=O)CCC(=O)N(CC(=O)NC(C)(C)C)c2ccc(F)c(Cl)c2)c1	7%	-19%
CCOc1ccc(N(C)C(=O)CCc2nnc3ccc(N4CCOCC4)nn23)cc1	11%	-3%
COc1ccc(C(=O)Nc2ccc(N3CCOCC3)cc2)cc1OC	-2%	3%[2.35 µM]
O=C(COC(=O)COc1ccccc1)Nc1ccc(OC(F)(F)F)cc1	-6%	6%
CCC(C)(C)c1ccc(OCCN2C(=O)NC(C)(C)C2=O)cc1	5%	13%
Next entries follow.
SMILES	TDP1 inh	N370S GC mod
Cc1ccccc1CSc1ncnc2ccccc12	-7%	13%
CCOc1cc(-c2noc(CCC(=O)NCC3CCCO3)n2)ccc1OC (stereo unspecified)	-8%	-3%
COc1cccc(N=C2SC(C(=O)Nc3ccc(F)cc3)CC(=O)N2C)c1 (stereo unspecified)	4%	-7%
CCc1cccc(NC(=O)c2cc(OC)c(OC)c(OC)c2)c1	-3%	-25%
C#CCN1Cc2ccccc2Oc2cc(Br)ccc2S1(=O)=O	-1%[56.1 µM]	.
O=C(CNC(=O)c1ccccc1F)N/N=C/c1ccc2c(c1)OCO2	12%	-1%
COc1ccc(NC(=O)c2ccc(OC)cc2)cc1	1%	-21%
O=C(COC(=O)c1ccc[nH]c1=O)NC1CCCc2ccccc21 (stereo unspecified)	.	-2%
O=C(CSc1nn(-c2ccccc2)c(=S)s1)Nn1cnnc1	6%	-5%
CC(C)C(NS(=O)(=O)c1ccc2c(c1)C(C)(C)C(=O)N2C)C(=O)NCc1ccccc1Cl (stereo unspecified)	.	1%
N#Cc1nc(Cc2cccc3ccccc23)oc1N1CCC(C(N)=O)CC1	6%	-8%
Cn1c(=O)c2c(nc(SCC(=O)N3c4ccccc4CCc4ccccc43)n2C)n(C)c1=O	5%	4%
Cc1n[nH]c(C)c1CCCCOc1ccccc1F	.	3%
CC(C)C(=O)Nc1ccc2nn(-c3ccccc3)nc2c1	-3%	20%
CCN1CCc2c(sc(NC(=S)NC(=O)c3ccc(Cl)cc3)c2C(N)=O)C1	7%	2%
CCN(CC(=O)NCc1cccs1)C(=O)/C=C/c1ccc(OC)cc1OC	.	1%
COc1cc2ncnc(NCc3ccc(C)cc3)c2cc1OC	8%	-10%
O=C(O)c1ccc2c3c(cccc13)C(=O)N(c1ccccc1)C2=O	.	-4%
O=C(c1ccco1)N1CCc2[nH]nc(-c3ccccc3)c2C1	1%	3%
O=C(NCc1ccccc1)c1cccc(F)c1F	5%	9%
CCN(CCCNC(=O)CNC(=O)c1nn(-c2ccc(OC)cc2OC)c(=O)c2ccccc12)c1cccc(C)c1	0%	-1%
COc1ccc(CNC(=O)CN(C)S(=O)(=O)c2ccc(Br)s2)cc1	0%	2%
Cc1cc(Cl)c(S(=O)(=O)N2CCCCCC2)cc1OCC(N)=O	2%	5%
O=C(CCC1CCCN(C(=O)CCC(F)(F)F)C1)NCc1ccc(F)c(F)c1 (stereo unspecified)	6%	?
Cc1ccc(CNC(=O)CN2CCN(c3ccc(F)cc3)CC2)cc1	4%	-18%
(cont.)
SMILES	TDP1 inh	N370S GC mod
O=C(CNC(=O)c1ccccc1F)OCC(=O)N1CCCc2ccccc21	4%	-1%
CS(=O)(=O)N1CCc2cc(C(=O)Nc3cccc([N+](=O)[O-])c3)ccc21	.	-5%
CN(c1ccccc1C(=O)Nc1ccc(F)c(F)c1)S(C)(=O)=O	-5%	-6%
COCCNC(=O)/C(C#N)=C/C(C)=C/c1ccccc1	1%	1%
COc1ccc(NS(=O)(=O)c2cc(-c3nnnn3C)ccc2OC)cc1	2%	0%
COc1ccc(-c2cc(C(=O)N3CCN(c4ccccc4OC)CC3)no2)cc1	1%	-2%
Cc1cc(C)cc(NC2=CC(=O)CC(c3ccco3)C2)c1 (stereo unspecified)	.	7%
Nc1ccc(CCn2ccnc2)cc1	.	-19%
Cc1ccc(N(C(=O)Cn2nnc(-c3ccc(F)cc3)n2)C(CC(C)C)C(=O)NCC2CCCO2)cc1 (stereo unspecified)	4%	11%
Cn1c(SCC(=O)Nc2ccc(F)cc2)nnc1C1CC1	4%	-10%
CCCCN(CC)C(=O)Cn1cnc2ccc(S(=O)(=O)N3CCC(C)CC3)cc2c1=O	3%	4%
CN(Cc1ccccc1)c1ccc(N2C(=O)CCC2=O)cc1[N+](=O)[O-]	5%	-2%
Cc1ccccc1C(=O)Nc1ccc(Br)cn1	1%	-6%
COC(=O)c1sc(-c2ccccc2)cc1NC(=O)c1ccccc1	0%	-12%
Cc1ccc(C(=O)c2c3ccc(C(F)(F)F)cc3[n+]([O-])n2CCCN)cc1	-1%	-19%
O=C(c1ccc([N+](=O)[O-])c(CS(=O)(=O)c2ccc(Cl)cc2)c1)N1CCCCC1	5%	-2%
CCN(C(=O)CN1CCN(c2ccc(OC)cc2)CC1)c1c(N)n(Cc2ccccc2)c(=O)[nH]c1=O	2%	0%
CS(=O)(=O)N(CC(=O)NC1CCCC1)Cc1ccc(Cl)cc1	7%	-10%
CCCCC#Cc1cncc(C(=O)N/N=C/c2ccccc2)c1	8%	-3%
COc1ccccc1/C=C/C(=O)NC(=S)N1CCN(C)CC1	0%	-18%
O=C1c2ccccc2S(=O)(=O)N1CC(O)Cn1ccc2ccccc21 (stereo unspecified)	3%	1%
CCN(CC)S(=O)(=O)c1cccc(C(=O)N/N=C2\CCCC(=O)C2)c1	7%	-9%
O=C(Nc1n[nH]c(=S)s1)c1ccc2ccccc2c1	6%	-23%
COc1cc(CC(NC(C)=O)C(=O)NC2CCN(C(=O)Nc3ccccc3C)CC2)cc(OC)c1 (stereo unspecified)	.	4%
Cc1nn(C2CCS(=O)(=O)C2)c(C)c1CN(C)C(=O)c1ccccc1 (stereo unspecified)	0%	.
The listing continues.
SMILES	TDP1 inh	N370S GC mod
O=C(CN1CCN(S(=O)(=O)c2ccc(Cl)cc2)CC1)Nc1ccc(N2CCOCC2)cc1	-2%	-8%
CC(C)CNc1nc2c(c(=O)n(C)c(=O)n2C)n1Cc1cccc(Br)c1	0%	1%
COc1ccc(NC(=O)NCc2ccccn2)cc1OC	0%	3%
O=C(CN1C(=O)C2CCCCC2C1=O)N1CCN(c2ccc(F)cc2)CC1 (stereo unspecified)	0%	3%
Cc1cc(N=Cc2c(O)ccc3ccccc23)no1	5%	-16%
CCc1nn(CC(=O)NCCCOC)c(=O)c2cc3occc3n12	-3%	.
CCn1c(SCC(=O)Nc2ccc(OC)cc2OC)nc2nc3c(cc2c1=O)COC(C)(C)C3	0%	-3%
CC1Cc2ccccc2N1C(=O)Cn1cnc2ccccc21 (stereo unspecified)	5%	1%
COc1ccc(/C=C/C(=O)Nc2ccc(S(=O)(=O)Nc3cc(C)nc(C)n3)cc2)cc1OC	0%	-6%
Cc1oc2nc(SCCCC(=O)NCCO)nc(N)c2c1C	8%	-11%
c1coc(Cn2c(SCc3nc4ccccc4[nH]3)nnc2-c2cnccn2)c1	6%	-10%
Cc1cc(CNC(=O)C2(C(F)(F)F)C/C(=C\Cc3ccccc3)CCCO2)nn1C (stereo unspecified)	5%	2%
Nc1nc2n(n1)C(=O)CC(c1ccc(Cl)cc1)N2 (stereo unspecified)	3%	9%
Cc1ccc(OCC(=O)NCCN2CCCC2)cc1	5%	-4%
O=C(Nc1ccc(N2CCOCC2)cc1)C1CC(=O)N(c2ccc(Cl)cc2)C1 (stereo unspecified)	-3%	-12%
Cc1ccccc1-n1ncc2c1CC(C)(C)CC2NC(=O)C1=CC(=O)CC(C)(C)O1 (stereo unspecified)	4%	-7%
Cc1cc(C(=O)COC(=O)c2ccc3c(c2)OCO3)c(C)n1CC1CCCO1 (stereo unspecified)	1%	6%
CCC(=O)Nc1nnc(CSCc2ccc(F)cc2)s1	1%	-1%
O=C(NCc1ccc2c(c1)OCO2)c1cccnc1Cl	0%	3%
Cc1sc2nc(CN3CCOCC3)[nH]c(=S)c2c1C	7%	-3%
Cc1cc(/C=C2\SC(=S)N(C)C2=O)c(C)n1-c1cccc(O)c1	.	9%
Nc1cc(-c2ccco2)no1	-13%	2%[2.35 µM]
Cc1nn(CC(=O)Nc2ccc(Cl)cc2)c(=O)c2cc(-c3ccccc3)nn12	0%	-13%
CC(C)(C)NC(=O)C(c1cccs1)N(CC1CCCO1)C(=O)c1ccc(-c2ccccc2)[nH]1 (stereo unspecified)	8%	-3%
COc1ccccc1C(=O)NC(=O)Cn1nc(C)c([N+](=O)[O-])c1C	-12%	-9%
Later entries
SMILES	TDP1 inh	N370S GC mod
CCc1ccccc1NC(=O)CN(C)C(=O)CSc1nnc(Nc2cccc(C)c2)s1	3%	2%
O=C(Nc1ccc(N2CCOCC2)cc1N1CCOCC1)c1ncoc1-c1cccc(F)c1	.	-3%
CCOc1ccc(NC(=O)Cn2nnc(-c3ccccc3NC(=O)c3cccs3)n2)cc1	1%	-6%
CC(=O)NCCc1nc2ccccc2n1CCOc1ccccc1	3%	-3%
COc1ccc(CNC(=O)NS(=O)(=O)c2ccc(C)cc2)cc1	5%	-5%
O=C(c1ccc(=O)[nH]n1)N1CCN(S(=O)(=O)c2ccc3ccccc3c2)CC1	5%	-16%
N#Cc1c(NC(=O)c2ccc([N+](=O)[O-])o2)sc2c1CCC2	5%	2%
CNC(=O)/C(C#N)=C1/SC(Cc2ccc(F)cc2)C(=O)N1c1ccccc1 (stereo unspecified)	0%	26%

A stretch of the results above, as a working copy:
SMILES	TDP1 inh	N370S GC mod
Cc1cc(C(=O)COC(=O)c2ccc3c(c2)OCO3)c(C)n1CC1CCCO1 (stereo unspecified)	1%	6%
CCC(=O)Nc1nnc(CSCc2ccc(F)cc2)s1	1%	-1%
O=C(NCc1ccc2c(c1)OCO2)c1cccnc1Cl	0%	3%
Cc1sc2nc(CN3CCOCC3)[nH]c(=S)c2c1C	7%	-3%
Cc1cc(/C=C2\SC(=S)N(C)C2=O)c(C)n1-c1cccc(O)c1	.	9%
Nc1cc(-c2ccco2)no1	-13%	2%[2.35 µM]
Cc1nn(CC(=O)Nc2ccc(Cl)cc2)c(=O)c2cc(-c3ccccc3)nn12	0%	-13%
CC(C)(C)NC(=O)C(c1cccs1)N(CC1CCCO1)C(=O)c1ccc(-c2ccccc2)[nH]1 (stereo unspecified)	8%	-3%
COc1ccccc1C(=O)NC(=O)Cn1nc(C)c([N+](=O)[O-])c1C	-12%	-9%
CCc1ccccc1NC(=O)CN(C)C(=O)CSc1nnc(Nc2cccc(C)c2)s1	3%	2%
O=C(Nc1ccc(N2CCOCC2)cc1N1CCOCC1)c1ncoc1-c1cccc(F)c1	.	-3%
CCOc1ccc(NC(=O)Cn2nnc(-c3ccccc3NC(=O)c3cccs3)n2)cc1	1%	-6%
CC(=O)NCCc1nc2ccccc2n1CCOc1ccccc1	3%	-3%
COc1ccc(CNC(=O)NS(=O)(=O)c2ccc(C)cc2)cc1	5%	-5%
O=C(c1ccc(=O)[nH]n1)N1CCN(S(=O)(=O)c2ccc3ccccc3c2)CC1	5%	-16%
N#Cc1c(NC(=O)c2ccc([N+](=O)[O-])o2)sc2c1CCC2	5%	2%
CNC(=O)/C(C#N)=C1/SC(Cc2ccc(F)cc2)C(=O)N1c1ccccc1 (stereo unspecified)	0%	26%

This is a subset; most or all hits stand in other tables.
